From PubChem
MT1-MMP promoter: inhibitors of MT1-MMP promoter transcription, cell-based, luciferase reporter, luminescence (AID 618) | MT1-MMP promoter luciferase reporter cells, luminescence | calls from a first round at 10 µM; hits with a dose series show EC50 in µM | 87,000 tested, 0.62% active;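 active = over half of the reporter light lost at 10 µM or EC50 under 50 µM; inactive = the rest and hits that failed the dose series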;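 note: actives suppress MT1-MMP promoter-driven transcription so potencies describe inhibitors; HT1080 fibrosarcoma cells; overnight exposure; toxic or luciferase-blocking compounds were not removed from the actives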
Hsc70: Hsc70 inhibitors, probe displacement, primary screen, biochemical, fluorescence polarization (AID 568); one-dose displacement, % at 20 µM; IC50 in µM for titrated hits; 83,000 tested, under 10 active; Hsc70 fluorescence polarization, probe displacement; higher % means a stronger effect; strong numbers were not always called active;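 active = displacement above 50% without optical interference and an IC50 on retest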;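 note: ATPase domain with a fluorescein-tagged ATP probe; 0% = vehicle and 100% = excess ADP; read after one hour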
WNV protease inh: blocks West Nile virus NS2B-NS3 protease activity | P06935 | WNV NS2B-NS3 protease, fluorogenic substrate Ex360/Em465; hits give low values | z-score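 (tested at a level between 10 and 100 µM)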 | 65,000 tested, 0.18% active;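 active = z-score at -3 or under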;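 note: score is relative to mean and spread of the compound wells of a plate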
Target sequence (P06935 1371-1501 limits assumed): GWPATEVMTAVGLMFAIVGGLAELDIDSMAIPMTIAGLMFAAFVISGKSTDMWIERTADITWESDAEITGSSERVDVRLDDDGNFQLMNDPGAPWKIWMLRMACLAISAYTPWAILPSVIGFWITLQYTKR
Target sequence (P06935 1502-1679 limits assumed): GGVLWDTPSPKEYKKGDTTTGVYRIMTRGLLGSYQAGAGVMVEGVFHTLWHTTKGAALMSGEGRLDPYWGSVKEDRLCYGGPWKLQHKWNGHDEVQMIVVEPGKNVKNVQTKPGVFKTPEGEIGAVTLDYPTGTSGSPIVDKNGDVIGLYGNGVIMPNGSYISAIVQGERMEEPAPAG
Active calls of the source: *; i = inactive; . = no result given; + = active, no number.

SMILES	MT1-MMP promoter	Hsc70	WNV protease inh
CCOC(=O)N1CCN(C(=O)c2cn(-c3ccc(C)c(C)c3)c(=O)c3ccccc23)CC1	i	1.2%	0.23
Cc1ncc(C23CC4CC(CC(C4)C2)C3)[nH]1	i	1.1%	-0.45
O=C(NCc1ccco1)C(c1cccs1)N(Cc1ccccc1)C(=O)Cn1nnc2ccccc21 (stereo unspecified)	i	-8.8%	-0.96
CCOC(=O)Cn1c(=O)oc2cc(S(=O)(=O)NCc3ccccn3)ccc21	i	1.6%	-0.64
CCC(C)NS(=O)(=O)c1ccc(NS(C)(=O)=O)cc1 (stereo unspecified)	i	-3.9%	0.39
Cc1nn(-c2ccccc2)c2c1C(c1ccco1)C(C#N)=C(N)O2 (stereo unspecified)	i	2.6%	0.03
CCOCCCNc1nc(=S)[nH]c2cc(OC)c(OC)cc12	i	1.2%	0.23
O=C1CSC(c2cccs2)N1c1ccccc1 (stereo unspecified)	i	3.2%	-0.93
COc1ccc(CNc2nc(-c3cccnc3)nn2C(=O)c2cccs2)cc1	i	-1.3%	2.48
Cc1cccc2cc3c(N)c(C#N)sc3nc12	i	22.3%	1.03
COc1ccc(C2N3CC4(C)CN2CC(C)(C3)C4)cc1OC (stereo unspecified)	i	2.9%	1.05
Cc1ccc(S(=O)(=O)NC(CC(=O)O)c2ccccc2)c(C)c1 (stereo unspecified)	i	3.9%	0.91
CCCCOC(=O)Cn1cnc2ccc(Br)cc2c1=O	i	-2.6%	1.03
CCOc1ccc2c(c1)n([O-])c1c([n+]2=O)CCCC1	i	6.9%	1.49
CN(C)S(=O)(=O)N1CCN(CC(O)COc2ccc3cc(Br)ccc3c2)CC1 (stereo unspecified)	i	2.4%	-1
COc1ccc(CCn2c(C)cc(C(=O)CSc3nc(N)cc(=O)[nH]3)c2C)cc1	i	0.7%	.
CSc1nc(N2CCCC2)c2c(c1C#N)CC(C)(C)OC2	i	2.0%	-0.24
O=C(c1cn(-c2ccccc2)nc1-c1cccs1)N(CCO)Cc1ccccc1	i	0.7%	.
CCOC(=O)C1CCN(S(=O)(=O)c2ccc(C)cc2)CC1	i	-1.9%	.
O=C1CC(c2ccc3c(c2)OCO3)Sc2nc3ccccc3n21 (stereo unspecified)	+	-4.7%	0.78
CCCCOC(=O)Cn1c2ccc(OC)cc2c2nc3ccccc3nc21	i	55.4%	.
CC1CN(S(=O)(=O)c2cn(C)c(=O)n(C)c2=O)CC(C)O1 (stereo unspecified)	i	2.6%	0.9
O=C1c2[nH]nc(-c3ccccc3O)c2C(c2cccc(Cl)c2)N1Cc1ccco1 (stereo unspecified)	i	-1.7%	0.11
CC1CCC(NC(=O)CN2C(=O)C3CCCN3c3ncc(Cl)cc32)CC1 (stereo unspecified)	i	-63.9%	0.29
CCCCS(=O)CC(CS(=O)CCCC)OC(=O)c1ccccc1 (stereo unspecified)	i	-2.1%	0.78

New compounds follow.
SMILES	MT1-MMP promoter	Hsc70	WNV protease inh
Cc1c(C(=O)O)oc2c1C(O)CC(C)(C)C2 (stereo unspecified)	i	0.5%	-0.13
O=c1[nH]c(SCc2n[nH]c(=S)n2-c2ccccc2)nc2ccccc12	i	2.2%	-2.42
O=C(Nc1ccc(Cl)cn1)C1CCCN1S(=O)(=O)c1cccc2ccccc12 (stereo unspecified)	i	1.5%	.
CCCN(CCC)C(=O)c1ccc2c(c1)N(Cc1ccccc1)C(=O)CS2=O (stereo unspecified)	i	1.1%	-0.6
COc1ccc(C(N)CCc2ccc(C)o2)cc1 (stereo unspecified)	i	-3.1%	-0.06
Cc1ccc2c(c1)-c1c(cnn1CC(=O)N(CCC#N)c1ccccc1)CO2	i	-3.9%	-0.34
O=C(c1ccccc1Cl)N1CCCC(c2nc3c(nnn3Cc3ccccc3)c(=O)[nH]2)C1 (stereo unspecified)	i	-6.7%	1.53
CCN(CC)/C(=N/S(=O)(=O)c1ccc(C)cc1)c1ccccc1	i	4.3%	.
O=C(NCC1CCCO1)c1cc2ccccc2[nH]1 (stereo unspecified)	i	-3.4%	-0.53
CCCCN(c1ccccc1)S(=O)(=O)c1ccc2c(c1)CCN2C(=O)CCC(=O)O	i	-3.5%	0.03
CCn1c(C)cc2c(c1=O)C(c1ccc3c(c1)OCO3)C(C#N)=C(N)O2 (stereo unspecified)	i	0.6%	.
Brc1ccc(-c2cnnc(N3CCCC3)n2)cc1	i	-0.8%	-0.51
Cn1c(=O)c2cc(S(=O)(=O)NCCC(=O)NC3CCCCCC3)ccc2n(C)c1=O	i	5.3%	.
CCc1ccc(C(=O)NC(CC(C)C)C(=O)O)cc1 (stereo unspecified)	i	-2.2%	.
CC1(C)Cc2nc3n[nH]c(N)c3cc2CO1	i	6.4%	-0.5
Cn1c(N)c(C(=O)COC(=O)Cn2cc(C(F)(F)F)ccc2=O)c(=O)n(C)c1=O	i	-3.3%	0.26
COc1ccc(S(=O)(=O)N2CCCCC2C(=O)O)cc1 (stereo unspecified)	i	1.6%	.
Cc1c(NC(C)c2ccccc2O)c(=O)n(-c2ccccc2)n1C (stereo unspecified)	i	-1.2%	.
CN1CCN(CC(C)(C)NS(=O)(=O)c2ccc(Cl)cc2)CC1	i	5.8%	0.04
CC(C)CCn1c(SCC(N)=O)nc2c1c(=O)n(C)c(=O)n2C	i	6.6%	-0.16
COC(=O)c1ccc(CSc2nnc3ccccn23)o1	i	4.7%	-0.61
O=C1CN(CC(=O)Nc2ccc(Cl)cc2)CCN1	i	0.3%	.
O=C(Oc1ccccc1)c1ccc(COC(=O)c2cnccn2)cc1	i	2.8%	-0.99
CCn1c(C)c2c(C)nnc(C)c2c1C	i	-2.8%	0.09
CCOC(=O)c1cccc(NC(=O)CSc2nnc(-c3ccncc3)n2CCCOC)c1	i	2.9%	-0.34

New compounds follow.
SMILES	MT1-MMP promoter	Hsc70	WNV protease inh
CC(=O)c1c(C)[nH]c(C(=O)OC2CCOC2=O)c1C (stereo unspecified)	i	-2.8%	-0.68
COc1ccc(N(C)C(=O)CCC(=O)Nc2ccc3nc(N4CCOCC4)cc(C)c3c2)c(OC)c1	i	-0.1%	0.89
CCOc1ccccc1N1C(=O)c2ccc(C(=O)Nc3cccnc3)cc2C1=O	i	0.4%	0.43
Cc1ccc(S(=O)(=O)NC(=NCC(=O)O)c2ccccc2)cc1	i	5.0%	-0.12
O=C(O)CCN(CCC(=O)O)c1nnc(SCc2ccccc2)s1	i	-2.0%	-0.38
Cn1nccc1C(=O)N1CCN(c2ccc(F)cc2)CC1	i	-4.9%	.
CCn1c(=N)n(CC(O)c2ccco2)c2ccccc21 (stereo unspecified)	i	2.9%	0.35
O=C(O)c1cc(Cl)c(Cl)cc1C(=O)N1CCCC1	i	-1.4%	0.91
O=C(Oc1ccc(-c2cnc3ccccc3n2)cc1)c1ccc(Br)o1	i	4.2%	.
CCOC(=O)c1oc2ccccc2c1NC(=O)COc1cccc(OC)c1	i	-4.2%	0.86
Cc1ccnc(N2CCC(C(=O)Nc3ccc(Oc4ccccc4)cc3)CC2)n1	i	-9.8%	-0.48
CC(=O)Oc1cc2oc(=O)c3c(c2cc1Cl)CCC3	i	-4.6%	3.19
CC(=NC(C)C)C1=C(O)CCC1=O	i	-3.7%	-1.24
O=C(O)C1CCCN1S(=O)(=O)c1cc(Cl)ccc1Cl (stereo unspecified)	i	-1.5%	0.65
CCOC(=O)c1cnc(-n2nc(C)cc2C)nc1NCc1ccccc1	i	-6.5%	1.46
COc1cccc(-c2nc(CS(=O)CC(=O)NCc3ccccc3)c(C)o2)c1 (stereo unspecified)	i	4.1%	-0.54
CN(C(=O)c1cccc(N2C(=O)C3CC=CCC3C2=O)c1)C1CCCCC1 (stereo unspecified)	i	-3.0%	-0.61
c1ccc(-c2nc3cc(Oc4ccc5oc(-c6ccccn6)nc5c4)ccc3o2)nc1	i	-6.9%	-0.63
CN1CCc2nc(NC(=O)c3cccc(OC(F)F)c3)sc2C1	i	-7.7%	.
Cc1cccc(OCC(=O)OCC(=O)c2c(N)n(C)c(=O)n(C)c2=O)c1	i	-4.7%	-0.37
O=C(OCc1nc2ccccc2s1)c1cnccn1	i	-3.3%	0.4
CCS(=O)CCSC(=N)N (stereo unspecified)	i	4.6%	.
CCc1ccccc1NC(=O)CN(C)Cc1nc(N)nc(Nc2ccccc2C)n1	i	2.4%	0.67
COc1ccc(OC)c(Nc2nc(-c3sc(C)nc3C)cs2)c1	i	2.3%	0.75
CC(C)OC(=O)c1nn2c(C(F)(F)F)cc(-c3ccc(Br)o3)nc2c1Br	i	-7.2%	0.17

Some values from the results shown:
For WNV protease inh, CC(=NC(C)C)C1=C(O)CCC1=O reads -1.24
For Hsc70, COc1ccc(N(C)C(=O)CCC(=O)Nc2ccc3nc(N4CCOCC4)cc(C)c3c2)c(OC)c1 reads -0.1%

(listing goes on)
SMILES	MT1-MMP promoter	Hsc70	WNV protease inh
C=CCn1c(NC(=O)c2ccc(Br)o2)c(C(=O)OCC)sc1=S	i	-4.3%	0.75
CC(C)(C)NC(=O)CSc1ccc(C(C)(C)C)cc1	i	1.5%	.
C/C(=N\n1nnnc1Nc1ccccc1)c1ccc(N)cc1	i	1.4%	-0.27
O=C(OCC(=O)N1CCCC1)c1cccs1	i	-0.7%	-0.82
CCn1c(CC(=O)Nc2ccc(C)cc2)nnc1SCC(=O)NCc1ccccc1	i	1.0%	-0.45
CCC(=O)NCCc1nc2ccccc2[nH]1	i	1.7%	.
COc1ccccc1C(CCN(Cc1cccs1)C(C)=O)c1ccco1 (stereo unspecified)	i	-6.6%	1.11
Cc1[nH]nc(N=CC2=C(O)CC(C)(C)CC2=O)c1-c1ccc(Cl)cc1	i	6.2%	-0.75
COc1ccc(S(=O)(=O)NCCC(=O)NCc2ccccc2)cc1	i	1.8%	-0.09
CN(C)C(=O)c1c(-c2ccccc2)oc2ccc(O)cc12	i	2.0%	-0.25
COc1ccc(OC)c(NC(=O)Cc2coc3ccc(C)cc23)c1	i	-3.3%	-0.13
COc1ccc(C(=S)N(C)C)cc1OC	i	-4.7%	-0.51
O=C(COc1ccccc1)n1nc(-c2ccc(Cl)cc2)nc1NCc1ccco1	i	-0.9%	0.24
O=C(NCCOc1ccccc1)c1cc2ccccc2o1	i	4.6%	-0.68
C=CCSc1nc(C)c(CC(=O)OCC(C)C)c(=O)[nH]1	i	-5.5%	-0.24
CC1CCCC(C)N1C(=O)Cn1cc(/C=C2/C(=O)Nc3ccccc32)c2ccccc21 (stereo unspecified)	i	-11.7%	.
COc1ccccc1OCC(=O)Nc1ccc(S(=O)(=O)N2CCCCCC2)cc1	i	5.6%	-0.45
COc1ccc(S(=O)(=O)NCCc2csc(C)n2)cc1C	i	-3.3%	1.34
O=C(NCCc1ccccc1)C1CCCN(S(=O)(=O)c2cccnc2)C1 (stereo unspecified)	i	-4.0%	1.12
Cn1ncc(N=Cc2ccc([N+](=O)[O-])cc2)c1C(=O)N1CCOCC1	i	3.2%	.
COc1cc(C(=O)NCC2CCCO2)ccc1OCc1c(C)noc1C (stereo unspecified)	i	3.1%	-0.86
O=C(CSc1ncn(-c2ccccc2)n1)Nc1nc(-c2ccccc2)cs1	i	2.6%	.
CC(C)Cc1ccc(C(C)C(=O)OCC(=O)c2c[nH]c3ccccc23)cc1 (stereo unspecified)	i	12.1%	.
Cc1cc(S(=O)(=O)N2CCN(c3c(C)cccc3C)CC2)ccc1F	i	8.0%	-0.6
Cn1c(=O)c2c([nH]c(=O)n2C)n(C)c1=O	i	-1.8%	-0.51

Remaining list, next part:
SMILES	MT1-MMP promoter	Hsc70	WNV protease inh
CC1(N2CCOCC2)CC2(O)C(=[N+]1[O-])CCc1nonc12 (stereo unspecified)	i	4.7%	-0.39
COC(=O)CSc1nnc(-c2ccccc2OC)o1	i	-0.6%	1.1
Cc1ccc(C)c(-n2nnnc2Sc2nnnn2-c2ccccc2)c1	i	-1.9%	0.41
Cc1cc(=O)oc(C)c1C(=O)NCc1c(F)cc(F)cc1F	i	-0.1%	0.77
Cc1nn(C/C(C#N)=N\O)c(C)[n+]1N	i	-5.9%	-0.21
CCOc1ccccc1C1C(C(=O)OC)=CN(C)C=C1C(=O)OC	i	-3.0%	3.66
O=C(CSc1nnc(Cc2ccccc2)n1Cc1ccco1)NC12CC3CC(CC(C3)C1)C2	i	-1.5%	1.28

Twelve structures from above, arranged by number of heavy atoms, lowest first:
SMILES	MT1-MMP promoter	Hsc70	WNV protease inh
Cc1nn(C/C(C#N)=N\O)c(C)[n+]1N	i	-5.9%	-0.21
Cn1c(=O)c2c([nH]c(=O)n2C)n(C)c1=O	i	-1.8%	-0.51
COC(=O)CSc1nnc(-c2ccccc2OC)o1	i	-0.6%	1.1
CC1(N2CCOCC2)CC2(O)C(=[N+]1[O-])CCc1nonc12 (stereo unspecified)	i	4.7%	-0.39
Cc1cc(=O)oc(C)c1C(=O)NCc1c(F)cc(F)cc1F	i	-0.1%	0.77
CCOc1ccccc1C1C(C(=O)OC)=CN(C)C=C1C(=O)OC	i	-3.0%	3.66
Cn1ncc(N=Cc2ccc([N+](=O)[O-])cc2)c1C(=O)N1CCOCC1	i	3.2%	.
O=C(NCCc1ccccc1)C1CCCN(S(=O)(=O)c2cccnc2)C1 (stereo unspecified)	i	-4.0%	1.12
CC(C)Cc1ccc(C(C)C(=O)OCC(=O)c2c[nH]c3ccccc23)cc1 (stereo unspecified)	i	12.1%	.
COc1ccccc1OCC(=O)Nc1ccc(S(=O)(=O)N2CCCCCC2)cc1	i	5.6%	-0.45
CC1CCCC(C)N1C(=O)Cn1cc(/C=C2/C(=O)Nc3ccccc32)c2ccccc21 (stereo unspecified)	i	-11.7%	.
O=C(CSc1nnc(Cc2ccccc2)n1Cc1ccco1)NC12CC3CC(CC(C3)C1)C2	i	-1.5%	1.28

This is a subset; rates above refer to the full screens.
